# Bioassay records (PubChem)
# StopGo RLuc = Primary qHTS Assay for Foot and Mouth Disease Virus Antivirals against NCGC Sytravon and CBC Compound Libraries: Renilla Luciferase Signal | HEK cells with a luciferase reporter of 2A StopGo recoding | Potency, µM (doses to about 57.5 µM), without a hit: at the top dose signal change, negative = less light | 0.32% of 120,000 active; active means well fitted falling curve with a large enough effect; inconclusive means small, poorly fitted or top-dose-only effect; inactive means no such curve, though single readings can be large or run the other way; note: nearly all actives have a fitted effect of over 55% in size; overnight with compound
# StopGo FLuc = Primary qHTS Assay for Foot and Mouth Disease Virus Antivirals against NCGC Sytravon and CBC Compound Libraries: Firefly Luciferase Signal; Potency, µM (titrated, usually from 57.5 µM), for the others: top-dose signal change, negative = less light; 0.23% of 120,000 active; AID 1745856, 2022; HEK cells with a luciferase reporter of 2A StopGo recoding; active = well fitted falling curve with a large enough effect; inconclusive = small, poorly fitted or top-dose-only effect; inactive = no such curve, though single readings can be large or run the other way; note: nearly all actives have a fitted effect of over 60% in size; overnight with compound
# * marks the source's active call; other numbers are inactive results; ? = inconclusive; & = joins results of further samples; [ ] = remark or other dose. % is set by controls: 0 for no effect and ±100 for the full control effect; potency is the fitted concentration of half-maximal effect.
# Second line of a record – StopGo RLuc, StopGo FLuc
- CS(=O)(=O)N1CCCC(C(=O)NCCc2ccc(Cl)cc2)C1 (centres undefined)
 : -4%, -5%
- CC(C)(CO)NC(=O)c1sc2ccccc2c1Cl
 : 12%[1.06 µM], ?
- Cc1cc(F)ccc1NC(=O)CCS(=O)(=O)c1ccc2c(c1)NC(=O)CO2
 : 2%, 5%
- O=C(Nc1cc(F)ccc1F)Nc1ccc(Cl)cc1C(F)(F)F
 : 15%, 123%[activator]
- Cc1ccc2[nH]cc(CCN)c2c1
 : -15%, -8%
- CCOC(=O)c1c(C)[nH]c(C)c1S(=O)(=O)N1CCCC(C(=O)NCc2cccc(OC)c2)C1 (centres undefined)
 : 77%[activator], -11%
- CCNCc1ccccc1OCC
 : -6%, -3%
- CCC(C(=O)OCc1cc(=O)n2nc(CCOC)sc2n1)c1ccccc1 (centres undefined)
 : -6%, 6%
- CCn1cc(S(=O)(=O)c2cccc(Cl)c2)c(=O)c2cc(F)c(N3CCN(c4ccccc4)CC3)cc21
 : -2%, 2%
- CC(Oc1ccc(F)cc1)C(=O)N1CCC(c2nc3ccccc3s2)CC1 (centres undefined)
 : ?, ?
- Cc1oc2ncn(C)c(=O)c2c1C(=O)NCCCN1CCCCC1C (centres undefined)
 : -14%, -2%
- CCCn1c(NCc2ccco2)nc2c1c(=O)n(C)c(=O)n2C
 : -31%, -20%
- Cc1cccc(C(=O)Nc2ccc(S(=O)(=O)Nc3cnc4ccccc4n3)cc2)c1
 : -17%, 6%
- CCn1c(C(C)(C)Oc2ccc(Cl)c(C)c2)n[nH]c1=S
 : 8%, 2%
- O=C(NCCc1ccccc1)c1cc(Sc2ccc(F)cc2F)nc2ccccc12
 : -5%, -9%
- CCCCN(CC)C(=O)CCNS(=O)(=O)c1ccc2c(c1)c(=O)n(C)c(=O)n2C
 : 11%, -25%
- Cc1ccc(-n2ncnc2-c2cc3c(n(-c4ccccc4)c2=O)CC(C)(C)CC3=O)cc1
 : -12%, 16%
- CCOC(=O)N1CCN(c2nc3ccccc3nc2C(C#N)C(=O)NCCc2ccccc2)CC1 (centres undefined)
 : -11%, -2%
- C=C(C)Cn1c(SCCCCC)nc2c1c(=O)n(C)c(=O)n2C
 : -4%, 11%
- COc1ccc(NC(=O)c2c(C)noc2C(C)C)cc1OC(F)F
 : -1%, 9%
- O=C(Nc1ccc(I)cc1F)c1ccc(-c2ccccc2)cc1
 : 9%, 20%
- Cc1cc(NC(C)CCc2ccccc2)n2ncnc2n1 (centres undefined)
 : -13%[1.06 µM], ?
- COc1ccccc1NC(=O)CSc1nnc(CN2CCCCC2)n1-c1ccc(Cl)cc1
 : -1%, -5%
- CN(C)CC1(c2ccccc2)CCCC1
 : -1%, 2%
- COc1ccc(-c2nnc(-c3ccc(OC)c(OC)c3)o2)cc1OC
 : 2%, 75%[activator]
- Cc1ccc(NC(=O)Cn2c(=O)n(CCCCC(=O)NCCc3ccc(Cl)cc3)c(=O)c3ccccc32)cc1
 : -6%, -20%
- O=C(c1ccc2c(Cl)c3c(nc2c1)CCCC3)N1CCN(c2cccc(Cl)c2)CC1
 : -7%, -21%
- CC(C)c1ccc(OCCN)cc1
 : 7%, 0%
- COc1c(C)cc(S(=O)(=O)NCCc2c(C)[nH]c3ccccc23)c(C)c1C
 : 297%[activator], -1%
- Cc1ccc(NC(=O)CCn2nc(-c3ccc(C)cc3)c3ccccc3c2=O)cc1
 : 6%, -2%

# A second format for three compounds above.
mol: Cc1cc(NC(C)CCc2ccccc2)n2ncnc2n1 (centres undefined)
  StopGo RLuc = -13%[1.06 µM]
  StopGo FLuc = ?
mol: COc1c(C)cc(S(=O)(=O)NCCc2c(C)[nH]c3ccccc23)c(C)c1C
  StopGo RLuc = 297%[activator]
  StopGo FLuc = -1%
mol: Cc1ccc(NC(=O)Cn2c(=O)n(CCCCC(=O)NCCc3ccc(Cl)cc3)c(=O)c3ccccc32)cc1
  StopGo RLuc = -6%
  StopGo FLuc = -20%

# Further structures.
# Second line of a record – StopGo RLuc, StopGo FLuc
- Cc1cc(C)cc(-n2c(SCC(=O)N3CCCCC3)nc3c([nH]c4ccccc43)c2=O)c1
 : -11%, -23%
- COCCn1ccc2c(OCC(=O)Nc3ccccc3)cccc2c1=O
 : 23%, 0%
- CCCn1c(SCc2ncc(-c3cccc(Cl)c3)o2)n[nH]c1=O
 : -10%, 3%
- CCc1cccc2c(C3=NNC(=NC4CC4)SC3)c[nH]c12
 : 7%, 51%[activator]
- COc1ccc(-n2c(C)c(C)c3c2ncn2nc(-c4ccco4)nc32)cc1
 : 0%, 3%
- N#Cc1ccc(Cl)cc1NC(=O)C12CC3CC(CC(Cl)(C3)C1)C2
 : 8%, 0%
- COC(=O)c1cc(C(C)C)sc1NC(=O)c1ccccc1Cl
 : -5%, 2%
- Cc1noc(C)c1S(=O)(=O)N(CC(=O)NCCc1ccccc1)c1ccc(C(C)C)cc1
 : -5%, -5%
- CN(C)S(=O)(=O)c1ccccc1CNS(=O)(=O)c1ccc2c(c1)CCCC2
 : -23%, ?
- O=CN1CCN(C(=O)Cn2ccc3ccc(OCc4ccccc4)cc32)CC1
 : 8%, 4%
- CCOc1ccc(-n2ccnc2SCC(=O)Nc2cccc3ccccc23)cc1
 : -8%, -13%
- O=S(=O)(c1ccc2c(c1)CCN2)N1CCCCC1
 : 0%, 39%[activator]
- CC[N+]1(CC)CCC(=C(c2ccccc2)c2ccccc2)C1C (centres undefined)
 : -17%, -23%
- N#Cc1ccc(CN2CCc3cc(S(=O)(=O)N4CCCCC4)ccc32)c(F)c1
 : -22%, ?
- COc1cccc(C(c2sc3nc(-c4ccco4)nn3c2O)N2CCC(O)CC2)c1 (centres undefined)
 : 68%[activator], 57%[activator]
- Cc1ccc(CNc2oc(-c3ccccc3F)nc2C#N)cc1
 : 62%[activator], 117%[activator]
- CCOC(=O)CSc1nc2c(c(=O)[nH]c(=O)n2C)n1Cc1cccc(C)c1
 : 3%, 17%
- Cc1ccc(S(=O)(=O)C(CNS(=O)(=O)c2ccc(F)c(C)c2)c2cccs2)cc1 (centres undefined)
 : 253%[activator], -15%
- COc1ccc(CNC(=O)C(=O)NCC(c2ccco2)S(=O)(=O)c2ccc(Cl)cc2)cc1 (centres undefined)
 : 15%, -14%
- COc1cccc(CNC(=O)CCCN2C(=O)CSc3c2c(C)nn3-c2ccccc2)c1
 : -3%, -6%
- Cc1ccc(NC(=O)NCCOCCn2c(=O)oc3ccccc32)cc1C
 : -11%, -20%
- C=CCNC(=O)c1ccccc1NC(=O)c1ccccn1
 : 19%, 8%
- COc1cc(-c2c(C#N)c(N)nc3c2c(=O)nc2sccn23)ccc1OCc1cccc(C)c1
 : 20%, 19%
- O=C(COC(=O)C12CC3CC(CC(Br)(C3)C1)C2)Nc1c(Br)cc([N+](=O)[O-])cc1Br
 : -11%, -15%
- Cc1ccc(Nc2cc(C)nc(NCc3ccccc3)n2)c(C)c1
 : ?, ?
- O=C(N/N=C/c1cccs1)C1CC1
 : 5%, 26%
- CC(C)/C(=N/NC(=O)Cc1ccccc1)c1ccccc1
 : 35%[activator], 93%[activator]
- CN(C)c1ccc(C(=O)NNC(=O)C(F)(F)F)cc1
 : -8%, 43%[activator]
- COCCNc1ccc(-c2nc(-c3ccncc3)no2)cc1[N+](=O)[O-]
 : 6%, 48%[activator]
- COc1ccccc1CNC(=O)c1cc2cc(C)ccc2n1C
 : 0%, 5%

# (more compounds)
Compound,StopGo RLuc,StopGo FLuc
CNC(=S)NN=C1CCC(c2ccccc2)CC1 (centres undefined),6%,15%
C=CCn1c(Oc2cccc(C(F)(F)F)c2)nc2c1c(=O)n(C)c(=O)n2C,20%,22%
CCCc1cc(=O)oc2cc(OCC(=O)NC3CCCC3)ccc12,-12%,0%
O=C1CN(CC(=O)Nc2cc(Cl)ccc2Cl)CCN1,-19%,-9%
CCCCN(C)Cc1cc(=O)oc2cc(C)c(O)cc12,7%,0%
COc1ccccc1NC(=O)c1sc2ncn(Cc3ccccc3Cl)c(=O)c2c1C,-4%,-2%
CCOc1ccc(N(Cc2cc3cc(C)ccc3[nH]c2=O)C(=O)c2cccc(OC)c2)cc1,9%,15%
O=C(C(Sc1nc2ccccc2o1)c1ccccc1)N1CCCC1 (centres undefined),224%[activator],26%
Cc1nc(-c2ccc(F)cc2)sc1CCNC(=O)C(=O)Nc1ccc2c(c1)OCO2,13%,-10%
O=C(C(=O)N1CCN(C(=O)c2cc(-c3ccc(Cl)cc3)nc3ccccc23)CC1)N1CCOCC1,30%,7%
O=C(OCc1cc(=O)n2nc(-c3cccs3)sc2n1)c1ccc(Cl)cc1,4%,4%
Cc1cccc(/C=C/C(=O)c2ccc(-c3ccccc3)cc2)c1,-2%[1.06 µM],0%
Cc1ccc(-c2nnc3ccccc3c2C(=O)Nc2ccc(C)c(F)c2)cc1,-6%,106%[activator]
COC(=O)c1ccc(/C=C(/Cl)c2ncc(-c3ccc(Cl)cc3)o2)cc1,11%,32%[activator]
Cc1ccc(-c2c(C(=O)Nc3ccccc3F)oc(=O)c3ccccc23)cc1,-6%,-15%
CCOc1ccc(CNS(=O)(=O)c2ccc(-c3coc(C)n3)cc2)cc1OC,-27%,?
COC(=O)c1cc2sccc2n1Cc1c(C)cc(C)cc1C,-10%,-2%
COc1ccccc1NC(=O)c1cc(-c2cccnc2)nc2ccccc12,33%[activator],0%
COc1ccc(C(=O)/C(=C\c2ccc(Cl)cc2)c2nc3ccccc3o2)cc1,2%,?
Cc1ccc(-c2c(C(=O)N3CCN(c4cccc(C)c4C)CC3)oc(=O)c3ccccc23)cc1,-5%,-9%
CCOc1ccc(N2CC(NC(=O)c3ccc(Cl)cc3)CC2=O)cc1 (centres undefined),1%,-9%
O=[N+]([O-])c1c(Cl)c(Cl)cc(Cl)c1Cl,-14%[114 µM],-15%[22.9 µM]
O=C(O)C1C2C=CC(C2)C1C(=O)Nc1ccccc1C(F)(F)F (centres undefined),3%,3%
N#C/C(=C/c1sc2ccccc2c1Cl)C(=O)NC1CC1,165%[activator],61%[activator]
Cn1ncc2c(N3CCN(c4ccccc4)CC3)nc(N3CCOCC3)nc21,13%,15%
Cc1ccccc1N1CCN(c2nc(-c3cccnc3)nc3ccccc23)CC1,-4%,-5%
COc1ccc(C)cc1NC(=O)C1COc2ccccc2C1 (centres undefined),6%,3%
COc1ccccc1CNC(=O)Cn1cc2c(n1)-c1c(oc(C(=O)N3CCOCC3)c1C)CC2,-12%,-3%
Cc1cc(Nc2ccc(Cl)cc2)n2cnnc2n1,-5%,2%
CCOC(=O)N1CCN(S(=O)(=O)N2CCCC(C(=O)NCc3ccccc3OCC)C2)CC1 (centres undefined),-13%,-11%

# Compounds from the list above that have a furan ring, fused or not (6):
Compound,StopGo RLuc,StopGo FLuc
Cc1oc2ncn(C)c(=O)c2c1C(=O)NCCCN1CCCCC1C (centres undefined),-14%,-2%
CCCn1c(NCc2ccco2)nc2c1c(=O)n(C)c(=O)n2C,-31%,-20%
COc1ccc(-n2c(C)c(C)c3c2ncn2nc(-c4ccco4)nc32)cc1,0%,3%
COc1cccc(C(c2sc3nc(-c4ccco4)nn3c2O)N2CCC(O)CC2)c1 (centres undefined),68%[activator],57%[activator]
COc1ccc(CNC(=O)C(=O)NCC(c2ccco2)S(=O)(=O)c2ccc(Cl)cc2)cc1 (centres undefined),15%,-14%
COc1ccccc1CNC(=O)Cn1cc2c(n1)-c1c(oc(C(=O)N3CCOCC3)c1C)CC2,-12%,-3%

# Next results:
Compound,StopGo RLuc,StopGo FLuc
O=C1COc2ccc(-c3csc(NC4CCCCC4)n3)cc2N1,34%[activator],91%[activator]
CS(=O)(=O)N(CC(=O)Nc1ccc(F)c(Cl)c1)Cc1ccccc1,40%[activator],1%
N#C/C(=C/c1ccccc1OCCOc1ccccc1)c1ccccc1,54%[activator],56%[activator]
Cc1[nH]n(-c2ccc(F)cc2)c(=O)c1CCC(=O)Nc1ccc(C#N)cc1,43%[activator],1%
Cc1ccc(Nc2ccc([N+](=O)[O-])c3nonc23)cc1Cl,0%,0%
CCN(Cc1ccccc1)Cc1c(O)ccc2c(=O)c(-c3ccccc3Cl)coc12,-12%,-6%
Cc1ccc(S(=O)(=O)n2ccn(C(=O)CC3CCCCC3)c2=O)cc1,-9%,-3%
O=C(Cc1ccc2c(c1)CCCC2)NC1CCCC1,19%,76%[activator]
COc1ccc(NC(=O)c2ccccc2NS(=O)(=O)c2ccc3c(c2)OCCCO3)cc1,166%[activator],61%[activator]
CCOc1ccc(C(=O)C(C)OC(=O)c2ccc(OCC(N)=O)cc2)cc1 (centres undefined),0%,14%
O=C(NCC1(c2ccccc2)CCCC1)c1cc(=O)c2ccccc2o1,-2%,0%
CCC(C)NC(=O)C1CC2CCC1C2 (centres undefined),-2%,9%
C/C(=N\NC(=O)Cc1cccs1)c1ccc2ccccc2c1,14%&37%,80%&132%[activator]
COc1ccc(-c2cc(C(F)(F)F)nc(S(=O)(=O)CCC(=O)Nc3ccc(Cl)cc3)n2)cc1,1%,9%
O=S(=O)(Nc1nc2ccccc2nc1Nc1ccccc1)c1cccc2nsnc12,-2%,11%
Cc1nc(Nc2cccc(C(F)(F)F)c2)sc1C(=O)N(C)C,31%,277%[activator]
CCOc1cc(C(=O)Nc2ccc(-c3cn4cccnc4n3)cc2)cc(OCC)c1OCC,9%,26%
Cc1ccc(C)c(Nc2nc3c(S(=O)(=O)c4ccc(Br)cc4)nnn3c3ccsc23)c1,74%[activator],-26%

# Not all compounds are listed, so the mix of outcomes need not match the whole.
